High-throughput results as filed in PubChem.
Six1-Eya2 inh: Six1/Eya2 interaction inhibition. 0.56% of 360,000 active. AID 651725. activity change, % (test concentration not listed). AlphaScreen GST-Six1/His-Eya2 binding, biochemical; hits give low values; control for the full effect not named in the record. Q15475+O00167; in the data active = activity change below about -65%; inconclusive = about -30% to -65%; inactive = above about -30%; further: on the % scale 0 is the no-effect control and ±100 the full control effect; compound concentration not given in the record
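Compounds are tested against tagged Six1 and Eya2 proteins bridged by glutathione donor and nickel acceptor beads; after a one-hour incubation at 37 °C without light, AlphaScreen emission is recorded.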
CtBP-E1A inh: inhibitors of CtBP/E1A interaction | AlphaScreen GST-E1A/His-CtBP binding, 1536-well; hits give low values; control for the full effect not named in the record | activity change, % (no concentration beside the values) | 0.49% of 340,000 active | AID 651724; in the data active means activity change below about -65%; inconclusive means about -30% to -65%; inactive means above about -30%; further: on the % scale 0 is the no-effect control and ±100 the full control effect; compound concentration not given in the record
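AlphaScreen with 125 nM GST-E1A and 125 nM His-CtBP (5X stocks) in Tris pH 8.0, 300 mM NaCl, BSA, Tween 20, TCEP. Compounds preincubated 2 h at 37 deg C, then glutathione donor/nickel acceptor beads added for 1 h at 37 deg C in dark.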
PINK1 expr mod: PINK1 expression modulation; PINK1 immunofluorescence, high-content cytometry, 24 h; Potency, µM (series often up to 76.6 µM), for the others: at the top dose activation (PINK1 increase), most hits filed as activators; 0.2% of 410,000 active; active = well fitted activation curve with a large enough effect; inconclusive = small, poorly fitted or top-dose-only effect; inactive = flat fitted curve, though single readings scatter; cell line not stated here;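 further: potency means the concentration at half of the fitted maximal effect; % of control where 0% means no effect; nearly all actives have a fitted effect of over 65% in size; a mitochondrial uncoupler was the plate control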
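Measures PINK1 amount and localization on or inside mitochondria by immunofluorescence. Stable cells get compounds at 5 concentrations for 24 hours before fixation and staining; CCCP controls included.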
D2 PAM: human D2 receptor positive allosteric modulation. DiscoveRx D2 beta-arrestin cells, luminescence, 90 min; 100% = 57 uM dopamine signal. potentiation, % (concentration not given with the values). 0.23% of 360,000 active. P14416; active = potentiation of 50% or more; inconclusive = 30% to 50%; inactive = 30% or less;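 further: compound concentration not given in the record; tested on top of an EC20 dose of dopamine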
Target sequence (P14416 whole entry, looked up): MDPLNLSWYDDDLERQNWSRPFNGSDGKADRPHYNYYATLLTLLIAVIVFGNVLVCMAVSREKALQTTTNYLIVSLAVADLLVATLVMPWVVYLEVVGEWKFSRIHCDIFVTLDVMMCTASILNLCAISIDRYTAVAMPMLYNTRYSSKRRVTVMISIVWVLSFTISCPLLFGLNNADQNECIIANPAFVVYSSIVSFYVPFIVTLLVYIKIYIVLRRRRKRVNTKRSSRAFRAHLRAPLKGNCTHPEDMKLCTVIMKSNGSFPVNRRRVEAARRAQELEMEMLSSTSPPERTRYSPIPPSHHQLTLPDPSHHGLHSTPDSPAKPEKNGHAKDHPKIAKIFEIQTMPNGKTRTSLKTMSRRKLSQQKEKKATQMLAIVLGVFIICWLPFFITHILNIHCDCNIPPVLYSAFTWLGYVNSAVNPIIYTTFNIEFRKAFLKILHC
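PathHunter D2 cells, attached overnight at 37 deg C, received compound in DMSO plus dopamine at EC20 (50 nM final) for 90 min at 37 deg C. Beta-arrestin recruitment was read as luminescence after 1 h with detection reagent at ambient temperature.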
D2 agonist: activates the human D2 dopamine receptor | activation, % (no concentration beside the values) | DiscoveRx PathHunter D2 beta-arrestin, luminescence, 90 min; 100% = 57 uM dopamine signal | 0.084% of 360,000 active | P14416; in the data active = activation above about 40%; inconclusive = about 15% to 40%; inactive = below about 15%; further: compound concentration not given in the record; the text of the record calls up to 30% inactive
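DiscoveRx PathHunter D2 beta-arrestin cells (2,100/well) attached overnight, then compound-stimulated 90 min at 37 C in HBSS/10 mM HEPES/0.1% Tween-20 buffer; beta-galactosidase complementation read by luminescence after 1 h at ambient temperature. Dopamine 57 uM final (EC100) as control.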
TRPML1 ag: activates the human TRPML1 channel | TRPML1-expressing cells, Ca2+ dye fluorescence, FDSS; host cell line not named in the record; reference of the full effect not given here | activation, % (test concentration not listed) | Q9GZU1 | 0.12% of 410,000 active; in the data active = activation above about 50%; inconclusive = about 30% to 50%; inactive = below about 30%; further: 0% is about no effect; the text of the record puts the active cut at 80%
Target sequence (Q9GZU1 whole entry, looked up): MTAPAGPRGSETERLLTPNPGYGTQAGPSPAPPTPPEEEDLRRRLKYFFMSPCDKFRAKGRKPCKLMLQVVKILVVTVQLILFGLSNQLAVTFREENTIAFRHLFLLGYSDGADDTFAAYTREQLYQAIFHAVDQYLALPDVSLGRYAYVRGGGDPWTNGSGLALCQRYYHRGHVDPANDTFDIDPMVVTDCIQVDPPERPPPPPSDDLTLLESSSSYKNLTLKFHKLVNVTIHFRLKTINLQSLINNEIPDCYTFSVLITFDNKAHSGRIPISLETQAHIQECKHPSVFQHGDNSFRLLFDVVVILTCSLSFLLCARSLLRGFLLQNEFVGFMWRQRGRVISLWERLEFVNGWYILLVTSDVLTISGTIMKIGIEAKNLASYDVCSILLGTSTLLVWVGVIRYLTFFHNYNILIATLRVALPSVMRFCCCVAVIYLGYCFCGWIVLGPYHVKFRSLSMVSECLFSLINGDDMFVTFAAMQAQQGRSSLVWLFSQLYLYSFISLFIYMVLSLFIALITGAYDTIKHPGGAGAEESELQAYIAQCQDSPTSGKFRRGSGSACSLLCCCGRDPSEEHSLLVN
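TRPML1-DL cells, Tet-induced overnight (~16 h, 37 degrees C), loaded 45-90 min at room temperature with Ca8 no-wash calcium dye plus quencher. FDSS fluorescence: 10 s baseline, compound pin-transfer, 110 s agonist read, then EC80 54-4 (4uM final) and 110 s antagonist read.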
* marks the source's active call; other numbers are inactive results; ? = inconclusive; . = not tested or not shown; [ ] = remark or other dose.

Start of the data: the first 4 entries, to show the layout:
canonical_smiles,D2 agonist,Six1-Eya2 inh,TRPML1 ag,CtBP-E1A inh,PINK1 expr mod,D2 PAM
COc1ccc(NC(=O)COC(=O)CNC(=O)c2cccs2)cc1Cl,4.8,-1,3.0,0,1.6%,0
CSC1=NSC2=NC(=O)/C(=C\c3coc4ccccc4c3=O)C(=N)N12,2.6,-28,76*,-2,0.9%,7
C=CCOc1ccc(/C=N/NC(=O)C(=O)Nc2ccccn2)cc1OC,-1.1,1,-0.5,9,-0.2%,-2
N#CCCN(Cc1ccccc1)C(=O)Nc1ccc2c(c1)CCO2,-7.1,-2,0.8,-4,0.2%,-12

This part in full, repeating the preview:
canonical_smiles,D2 agonist,Six1-Eya2 inh,TRPML1 ag,CtBP-E1A inh,PINK1 expr mod,D2 PAM
COc1ccc(NC(=O)COC(=O)CNC(=O)c2cccs2)cc1Cl,4.8,-1,3.0,0,1.6%,0
CSC1=NSC2=NC(=O)/C(=C\c3coc4ccccc4c3=O)C(=N)N12,2.6,-28,76*,-2,0.9%,7
C=CCOc1ccc(/C=N/NC(=O)C(=O)Nc2ccccn2)cc1OC,-1.1,1,-0.5,9,-0.2%,-2
N#CCCN(Cc1ccccc1)C(=O)Nc1ccc2c(c1)CCO2,-7.1,-2,0.8,-4,0.2%,-12
CCOC(=O)CCCCNC(=O)Nc1ccccc1,1.5,0,-0.8,11,0.2%,4
O=C(CSc1nc(-c2ccco2)cc(C(F)(F)F)n1)Nc1ccc2c(c1)OCO2,0.3,-7,2.4,-3,9.6%[38.3 µM],-5
O=C(Nc1ccc(F)cc1)c1cccnc1,-1.8,3,0.0,4,0.4%,-1
COc1ccc(CC(=O)NCC2CCCN(Cc3ccc(OC(F)(F)F)cc3)C2)cc1 (stereo unspecified),-1.6,10,-0.5,-2,1.0%,-4

The list goes on:
canonical_smiles,D2 agonist,Six1-Eya2 inh,TRPML1 ag,CtBP-E1A inh,PINK1 expr mod,D2 PAM
COc1ccc(-c2csc3ncnc(N4CCN(c5ccccc5)CC4)c23)cc1,1.7,?,1.1,-14,0.2%,0
CCOC(=O)c1ccc(N2C=C(C(=O)OC)C(c3cccc(O)c3)C(C(=O)OC)=C2)cc1,3.2,-1,1.8,.,2.5%,-7
N/C(=N\OC(=O)Nc1ccccc1)c1cccc(C(F)(F)F)c1,8.4,-6,0.0,.,-0.5%,0
COc1ccccc1N(CC(=O)NC1CCCCC1C)S(=O)(=O)c1cccs1 (stereo unspecified),-2.8,2,0.7,-1,-0.1%,-12
COc1ccc(C(=O)N/N=C2\CCS(=O)(=O)c3ccc(F)cc32)cc1OC,-0.3,0,0.2,2,3.5%,6
CCc1nnc(NC(=O)CSc2ncnc3c2oc2ccccc23)s1,-1.4,8,-0.8,-1,0.4%,1
CN(Cc1ccccc1)c1nccn2ccnc12,-5.1,-13,-1.4,-15,1.0%,-8
CCc1ccccc1-n1nnnc1-c1cnccc1C(F)(F)F,-1.5,3,2.0,20,-0.5%,-1

Next part:
canonical_smiles,D2 agonist,Six1-Eya2 inh,TRPML1 ag,CtBP-E1A inh,PINK1 expr mod,D2 PAM
CN(C)C(=S)NCc1ccccc1,-1.6,1,0.2,6,1.0%,-6
Cc1ccc(NCc2nnc(SCC(=O)c3ccc4c(c3)OCCO4)o2)c(C)c1,-1.3,0,1.8,-6,.,-4
CC1CC(C)(C)C2=NCCN21 (stereo unspecified),-4.9,-5,-0.6,-3,-0.1%,-1
O=C(O)C1=C[C@H](c2cccs2)C[C@H](OCc2ccc(CO)cc2)O1,0.9,3,-0.2,5,0.5%,-2
CC(C)CN(C(=O)COC(=O)c1cccnc1Cl)c1c(N)n(Cc2ccccc2)c(=O)[nH]c1=O,0.6,1,0.6,6,0.2%,19
CCOC(=O)Cn1c(C)c(Br)c(COC)c(C#N)c1=O,0.8,-8,2.2,-5,-1.6%,0
CCC1CCCCN1C(=O)CSc1nc(C)cc(C)n1 (stereo unspecified),-2.8,5,-0.2,0,2.2%,-3
COc1ccc(CCNS(=O)(=O)c2ccc3oc(C(=O)O)c(C)c3c2)cc1OC,-0.4,-2,1.8,1,1.8%[38.3 µM],-2

More compounds follow:
canonical_smiles,D2 agonist,Six1-Eya2 inh,TRPML1 ag,CtBP-E1A inh,PINK1 expr mod,D2 PAM
COc1ccc(CC(=O)NCCC2=CCCCC2)cc1,2.3,-1,-0.4,12,0.0%,-11
CCc1ccc(CN(C)Cc2nc(Cc3cccc(C(F)(F)F)c3)no2)nc1,-0.2,-27,-0.2,0,-0.1%,1
CCOc1ccccc1N(C(C)=O)S(=O)(=O)c1ccc(Cl)cc1,-8.2,7,-1.6,1,0.7%,-6
O=C(Nc1ccc(Oc2ccccc2)nc1)C1CCN(Cc2ccccc2)CC1,-0.2,0,0.3,0,-0.3%,-24
O=C(NCCCNCCCNC(=O)c1ccc(/C=N/O)nc1)c1ccc(/C=N/O)nc1,-8.9,-87*,0.1,.,-1.0%,-3
Cc1oc2c(c(C)cc3oc(=O)c(CC(=O)N[C@H](C(=O)O)C(C)C)c(C)c32)c1C,1.3,-11,1.8,-18,-1.9%,-1
Cc1ccc(S(=O)(=O)Nc2cc(=O)[nH]c(SCc3ccccc3Cl)n2)cc1,-0.1,-4,-0.4,-5,4.6%,-4
CN1C[C@H]2CON(C)[C@H]2C[C@H]1c1cccc(-c2ccc(C#N)cc2)c1,-2.2,-11,1.1,-20,-1.2%,-16

New compounds follow.
canonical_smiles,D2 agonist,Six1-Eya2 inh,TRPML1 ag,CtBP-E1A inh,PINK1 expr mod,D2 PAM
CC(=O)N(CN1C(=O)C2C3C=CC(C3)C2C1=O)c1cccc(Cl)c1 (stereo unspecified),1.5,-1,-0.1,2,-1.1%,-11
Cc1ccc(S(=O)(=O)N(CCc2ccccc2)c2ccc3c(c2)C2CC3CCN2C(=O)OCc2ccccc2)cc1 (stereo unspecified),-12,3,-0.2,-3,7.2%,-8
C=CCOc1ccc(C2C(C(=O)c3ccco3)=C(O)C(=O)N2c2nnc(C)s2)cc1 (stereo unspecified),-8.2,-9,6.4,-1,-1.3%,-18
O=C(c1ccccc1)N1CCN(C(=O)c2ccc(OC(F)(F)F)cc2)CC1,-2.1,10,1.0,3,-2.8%,0
O=C(COC(=O)c1ccccc1O)NCCCc1ccccc1,-4.4,-2,-1.4,-1,-1.8%,-15
COc1nc(NCCO)nc(Nc2cc(Cl)ccc2OC)n1,-1.1,11,0.0,-14,-1.9%,-10
Cc1cc(Br)c(NC(=O)COC(=O)c2ccc[n+]([O-])c2)c(Br)c1,-0.6,3,0.2,1,0.4%,-4
COc1ccccc1C(=O)N/C(=C/c1cccc([N+](=O)[O-])c1)C(=O)Nc1cccc(C(=O)O)c1,3.9,-4,0.3,0,-1.0%,-5

The results go on.
canonical_smiles,D2 agonist,Six1-Eya2 inh,TRPML1 ag,CtBP-E1A inh,PINK1 expr mod,D2 PAM
COC(=O)C1CCN(C(=O)CSc2nnc(-c3ccncc3)o2)CC1,-2.6,2,0.0,-1,3.7%,-6
CCCCCc1ccc(OCCCC[n+]2ccc(C)cc2)c(CCCCC)c1,-6.8,-2,-0.6,-3,-1.8%,-6
C[C@@H]1CN([C@@H](C)CO)C(=O)CCCn2nncc2CO[C@H]1CN(C)C(=O)Nc1ccc(-c2cccs2)cc1,1.2,-4,-0.9,-6,2.4%,5
CCCOc1ccc(C2C(C(=O)c3cc4ccccc4o3)=C(O)C(=O)N2c2cc(C)on2)cc1 (stereo unspecified),2.1,1,-0.3,9,25µM*,2
CSc1ccc(CN(C)CCc2ccccn2)cc1,-2.8,13,.,.,0.5%,-59
O=c1[nH]nc(-c2ccc(F)cc2)cc1Cc1ccccc1,-3.2,-2,-0.2,.,2.9%,-11
CCOC(=O)c1cnc2c(C)cccc2c1NCCCN1CCOCC1,1.3,-1,-0.6,-2,3.2%,-11
Cc1ccc(C2(C)NC(=O)N(CC(=O)N3CCN(S(=O)(=O)c4cccc([N+](=O)[O-])c4)CC3)C2=O)cc1 (stereo unspecified),13,-5,0.5,-14,-0.9%,-5

Later entries:
canonical_smiles,D2 agonist,Six1-Eya2 inh,TRPML1 ag,CtBP-E1A inh,PINK1 expr mod,D2 PAM
COc1nc(-c2ccccc2)cc(-c2ccc3c(c2)OCO3)c1C#N,-2.3,3,2.4,1,8.6%,0
O=C(CN(CCc1ccccc1)S(=O)(=O)c1ccc(Br)cc1)N/N=C/c1ccccc1C(=O)O,2.2,6,0.1,-7,-0.4%,0
COC(=O)c1sccc1NC(=O)CN(C)NS(=O)(=O)c1ccc(Cl)cc1,-2.4,3,-0.4,0,-1.7%,-13
COC1=CC(=O)C=C(OC)C1(O)CC(C)=O,12,-1,.,4,-0.3%,-50
CCCCC(=O)Nc1nnc(SCC(=O)NCC2CCCO2)s1 (stereo unspecified),-5.6,5,1.0,-3,-1.0%,-2
Cc1nc2ccccc2n1/N=C/c1ccc([N+](=O)[O-])o1,4.6,-10,0.1,-9,.,?
CCn1nc(C)c(NC(=O)c2cnn3c(C(F)F)cc(-c4ccccc4)nc23)c1C,-5.0,-16,1.0,-22,1.5%,-3
CN(C)c1ccc(N=Cc2cccn2C)cc1,5.9,?,2.6,?,-0.8%,-20

The list goes on.
canonical_smiles,D2 agonist,Six1-Eya2 inh,TRPML1 ag,CtBP-E1A inh,PINK1 expr mod,D2 PAM
COCCOC(=O)C1=C(C)NC(=O)N(C(C)=O)C1c1ccc(Cl)cc1 (stereo unspecified),-1.7,-1,3.7,1,-5.0%[38.3 µM],-17
O=S(=O)(Nc1ccc(N2CCCCC2)cc1)c1ccc(F)c(F)c1,2.6,-26,0.3,-24,10%,-15
O=C(NCCN1CCC(n2c(=O)[nH]c3ccccc32)CC1)c1ccc(F)cc1,.,-7,-0.7,-5,-1.0%,.
C[C@]12CC[C@@H]3c4ccc(O)cc4C(=O)C[C@H]3[C@@H]1CC[C@@H]2O,-2.5,-2,-0.3,2,0.8%,-2
COc1cc(NC(=O)CSc2ccc(-c3cccnc3)nn2)cc(OC)c1,1.5,-13,0.3,1,-2.1%,-9
CN(C)C(=N)c1n[nH]nc1SCc1ccccc1,3.2,-5,-0.3,2,0.9%,4
COC(=O)C1(Cc2ccc3c(c2)CCC3)Cc2ccc3c(c2C1=O)CCC3 (stereo unspecified),-2.0,20,0.6,10,17%,-16
COc1ccc(-n2nc(C(=O)NCC(=O)N3CCN(c4ccccn4)CC3)c3ccccc3c2=O)cc1,-2.5,0,1.7,5,-0.8%,-8
Cc1cc(C(=O)N(CCC#N)Cc2cccs2)no1,1.8,7,-0.5,7,-1.9%,-7
O=C(NCC(=O)N(Cc1ccccc1)C(C(=O)NC1CCCC1)c1ccncc1)c1ccco1 (stereo unspecified),-5.6,2,0.4,4,1.4%,-8
